Bioassay records as filed in PubChem.
KCNQ2 enhance: KCNQ2 (rat) channel potentiation; CHO-K1 KCNQ2, FluxOR thallium flux fluorescence; hits give high values; AID 2239; 310,000 tested, 0.54% active; B-score at 10 µM;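 active means fluorescence ratio B-score at least 3 SD of library B-scores, with initial fluorescence B-score within 3 SD, cut at about 5.3 in these data; same plate scores as AID 2156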;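 further: B-score of peak minus minimum over baseline fluorescence ratio after K+ and Tl+ stimulus; positive B-score means potentiation of KCNQ2 with more thallium influx and brighter signal; only the inactives scoring about 0 or higher are listed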
Target sequence (O88943 whole entry, looked up): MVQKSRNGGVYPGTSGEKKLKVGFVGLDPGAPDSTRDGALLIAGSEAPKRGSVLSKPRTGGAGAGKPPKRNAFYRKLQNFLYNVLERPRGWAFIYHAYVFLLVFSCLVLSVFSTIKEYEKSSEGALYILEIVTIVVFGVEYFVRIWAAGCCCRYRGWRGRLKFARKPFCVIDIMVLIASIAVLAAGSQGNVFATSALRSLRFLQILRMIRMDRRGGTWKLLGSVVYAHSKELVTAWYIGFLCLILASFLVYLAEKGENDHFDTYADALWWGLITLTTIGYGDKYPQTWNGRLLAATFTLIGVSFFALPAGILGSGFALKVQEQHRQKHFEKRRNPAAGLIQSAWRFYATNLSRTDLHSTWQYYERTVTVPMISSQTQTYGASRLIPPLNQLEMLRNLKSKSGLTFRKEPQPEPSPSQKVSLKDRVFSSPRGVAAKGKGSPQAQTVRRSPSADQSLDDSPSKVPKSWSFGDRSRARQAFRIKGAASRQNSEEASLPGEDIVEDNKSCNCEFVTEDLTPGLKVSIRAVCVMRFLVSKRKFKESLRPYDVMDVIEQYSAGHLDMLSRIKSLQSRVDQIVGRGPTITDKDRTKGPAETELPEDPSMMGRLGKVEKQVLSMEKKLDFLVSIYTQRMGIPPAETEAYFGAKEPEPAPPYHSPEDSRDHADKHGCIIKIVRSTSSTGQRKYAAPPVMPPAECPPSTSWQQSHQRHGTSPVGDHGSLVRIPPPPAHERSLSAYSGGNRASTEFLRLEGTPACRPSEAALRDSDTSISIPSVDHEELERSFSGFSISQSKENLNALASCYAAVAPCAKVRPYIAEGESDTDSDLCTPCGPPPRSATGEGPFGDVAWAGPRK
KCNQ2 enhance baseline: further read-out of KCNQ2 enhance, marked with its call; B-score; compound at 10 µM; measured here: initial fluorescence intensity artifact check;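 brightness before thallium and not channel activity; 0 = typical well and far values either way flag optical interference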
* = called active by the depositor. These rows are one share of the data, so the mix of outcomes need not match the whole.

KCNQ2 enhance	KCNQ2 enhance baseline	canonical_smiles
0.12	-0.52	Cc1nc(C)n(CC(O)COc2ccc(C(=O)c3ccccc3)cc2)n1 (configuration not stated)
0.81	0.27	CCOC(=O)c1c(/N=C/c2cccc(C)c2O)sc2c1CCN(C)C2
1.9	-1.3	COc1cc(C(=S)N2CCCCC2)ccc1OCC(=O)Nc1ccccc1Cl
1.2	-2.7	CNC(=O)COc1coc(CN2CCN(c3ccc(F)cc3)CC2)cc1=O
0.52	-1.6	CCOc1ccc2nc(NS(=O)(=O)c3ccc(NC(C)=O)cc3)sc2c1
2.1	0.03	CN1CCN(C(CNC(=O)c2ccc(Br)o2)c2ccc(F)cc2)CC1 (configuration not stated)
1.4	-0.59	CCCCn1c(SCC(=O)c2ccccc2)nc2c1c(=O)[nH]c(=O)n2C
0.18	0.63	Clc1ccc(-c2[nH]ncc2N=Nc2ccccc2)cc1
0.71	-0.85	CSc1nnc(C)c(/C=C/Nc2ccc(F)cc2)n1
1.6	-0.56	O=C(O)CNS(=O)(=O)c1ccc(C2CCCCC2)cc1
0.74	0.02	Cc1ccc[n+](CC(=O)/C=C2\N(C)c3ccccc3C2(C)C)c1
0.67	-0.03	CCCSc1nc(O)c(C2OC(=O)c3c2ccc(OC)c3OC)c(=O)n1-c1ccccc1 (configuration not stated)
0.38	-1.7	CCOC(=O)c1ccc(NC(=O)Cn2nnc(-c3ccc(F)cc3)n2)cc1
0.35	-1.4	COc1cc(C(=O)N2CCC(C(=O)Nc3cccc(C(C)=O)c3)CC2)cc(OC)c1OC
0.8	-0.22	Cc1nc(NC(=O)c2ccccc2)sc1Cc1ccc2c(c1)OCO2
0.63	1	CC(=O)Nc1cc2ccc(OC(C)=O)cc2oc1=O
0.41	-0.51	Cc1ccc(OCCN2CCOCC2)cc1C
1.1	1.8	Cc1noc(C)c1S(=O)(=O)N1CCCC(C(=O)NCC2CCCO2)C1 (configuration not stated)
0.8	1.2	CN(C)/C=N/c1nc2nccc(-c3cccc(Cl)c3)n2n1
0.51	0.71	Cc1cccc(N2C(=N)SCC2=O)c1C
0.8	0.96	CCOc1cc(C(=O)Nn2cnnc2)cc(OCC)c1OCC
0.4	0.87	O=C(CN1C(=O)CCC1=O)Nc1nc(-c2ccc(Oc3ccccc3)cc2)cs1
0.64	0.23	CC(=O)c1nn(-c2cccc(Cl)c2)cc1C(=O)c1ccco1
0.01	0.68	C[C@H](NC(=O)c1nc[nH]c1C(=O)N[C@@H](CCCCNC(=O)OC(C)(C)C)C(=O)OC(C)(C)C)C(=O)OCc1ccccc1
0.16	-1.2	Cc1cc(N2CCN(C3CCCCC3)CC2)n2nc(C)nc2n1

3 entries from above, field by field.
Compound: CN1CCN(C(CNC(=O)c2ccc(Br)o2)c2ccc(F)cc2)CC1 (configuration not stated)
  KCNQ2 enhance = 2.1	KCNQ2 enhance baseline = 0.03
Compound: COc1cc(C(=O)N2CCC(C(=O)Nc3cccc(C(C)=O)c3)CC2)cc(OC)c1OC
  KCNQ2 enhance = 0.35	KCNQ2 enhance baseline = -1.4
Compound: CCCCn1c(SCC(=O)c2ccccc2)nc2c1c(=O)[nH]c(=O)n2C
  KCNQ2 enhance = 1.4	KCNQ2 enhance baseline = -0.59

Part of the list above, as labelled records:
CNC(=O)COc1coc(CN2CCN(c3ccc(F)cc3)CC2)cc1=O
- KCNQ2 enhance: 1.2
- KCNQ2 enhance baseline: -2.7

CCOc1ccc2nc(NS(=O)(=O)c3ccc(NC(C)=O)cc3)sc2c1
- KCNQ2 enhance: 0.52
- KCNQ2 enhance baseline: -1.6

CN1CCN(C(CNC(=O)c2ccc(Br)o2)c2ccc(F)cc2)CC1 (configuration not stated)
- KCNQ2 enhance: 2.1
- KCNQ2 enhance baseline: 0.03

CCCCn1c(SCC(=O)c2ccccc2)nc2c1c(=O)[nH]c(=O)n2C
- KCNQ2 enhance: 1.4
- KCNQ2 enhance baseline: -0.59

Continued.
KCNQ2 enhance	KCNQ2 enhance baseline	canonical_smiles
0.59	-1.5	CCC(C(=O)NC1CCCC1)N(C(=O)Cn1nnc(-c2ccc(C)cc2)n1)C1CCCC1 (configuration not stated)
1.2	-2.3	O=C(NC1CCCC1)C1CCN(C(=O)c2cccc(Cl)c2)CC1
0.32	0.52	O=S(=O)(O)c1cc(OS(=O)(=O)c2ccccc2)cc2ccccc12
1.7	-1.4	Cc1nn(C)cc1CNC(=O)c1ccc(Br)o1
0.82	0.89	CC(C)CCn1cnc2c(NCc3ccccc3)ncnc21
1.9	-0.54	CS(=O)(=O)N1CCN(c2ncnc3c2cnn3-c2ccccc2)CC1
2.5	-1.7	COc1ccc(CNC(=O)c2coc(=O)c3ccccc23)cc1
1.5	0	CC(CCc1ccccc1)NC(=O)COc1ccc(S(=O)(=O)N2CCOCC2)cc1[N+](=O)[O-] (configuration not stated)
2.1	-0.26	COc1ccc(N2C(=O)CS/C2=C\[N+](=O)[O-])cc1
0.83	0.14	CCCCNS(=O)(=O)c1ccc2nc(-c3cccnc3)cc(C(=O)NCCCOCC)c2c1
0.23	-0.08	COc1cccc(NC(=O)Nc2ccncc2)c1
0.89	-0.1	CC(C)c1ccc(S(=O)(=O)N2CCCCC2)cc1
1.6	0.21	Cc1c(C#N)c2ncn(Cc3ccccc3)c(=O)c2n1-c1ccccc1
2.5	0.69	Cc1ccc(C)c(-n2nnnc2SCC(=O)NCCC2=CCCCC2)c1
0.53	-0.3	S=C(Nc1ccc(Oc2ccccc2)cc1)N1CCOCC1
0.63	0.01	CN1C(=O)NC(NC(=O)c2ccncc2)(C(F)(F)F)C1=O (configuration not stated)
1.9	1.8	CCS(=O)(=O)c1ccc2oc(SCC(=O)NC3CCCC(C)C3C)nc2c1 (configuration not stated)
0.62	-1.8	CCCN1C(=O)SC(CC(=O)Nc2ccc(Br)cc2)C1=O (configuration not stated)
0.04	0.42	O=C(O)c1ccccc1C(=O)Nc1ccc(Oc2ccccc2)cc1
1.3	2.3	CSc1ccccc1NC(=O)Nc1cccc(Cl)c1
0.41	0.61	CCOC(=O)c1cc(-c2ccc(Cl)s2)nc2c1c(C)nn2C
0.37	1.1	O=C(CN(CCc1ccccc1)Cc1ccccc1)Oc1ccccc1P(=O)(O)O
0.58	0.01	O=C1NCCN1C(=O)c1ccccc1F
0.99	-0.98	C=CCc1cccc(/C=C/c2cc(=O)c3ccccc3[nH]2)c1O
0.76	-0.2	COc1nc(N)c(S(=O)(=O)c2ccc(C)cc2)cc1C#N
0.05	-0.05	Cc1sc(NC(=O)CSc2nnnn2C2CCCCC2)c(C#N)c1C
0.46	1.5	COc1ccc(-n2ncc3c(=O)n(CC(=O)N4CCCc5ccccc54)cnc32)cc1
0.11	0.56	CCN(CC)CCNC(=O)/C(=C/c1cn(C)c2ccccc12)NC(=O)c1ccc(OC)c(OC)c1
0.21	-0.15	CCc1nn(CC(=O)Nc2cc(C)ccc2C)c(=N)s1
0.24	0.01	O=C(COC(=O)C1=COCCO1)NC1CCCCC1
0.72	1.4	O=C1CC2(CCN(C(=O)C3CC(=O)N(c4ccccc4)C3)CC2)Oc2ccccc21 (configuration not stated)
6.6*	-0.93*	CC1CCCCC1n1c(=S)[nH]c2ccccc2c1=O (configuration not stated)
0.55	0.97	Cc1ccccc1[C@@H]1C(C#N)=C(N)S[C@H]1C(=O)c1ccccc1
1.4	-0.14	O=C(C1CCC(=O)N1Cc1cccs1)N1CCOCC1 (configuration not stated)
0.98	-0.2	CN1CCN(c2ccc(CNS(=O)(=O)c3ccc(Cl)cc3)cc2)CC1
0.88	-1.4	COc1ccc(S(=O)(=O)N2CCOC23CCN(S(=O)(=O)c2cc(C)ccc2C)CC3)cc1
0.63	0	Cc1ccc(OCC(=O)NCCCNC(=O)c2ccccn2)cc1C
0.2	1.5	CC1CCCC(C)N1/N=C/c1cccc(Br)c1 (configuration not stated)
0.79	-0.12	NC(=S)N/N=C/c1cc([N+](=O)[O-])ccc1OCCOc1ccccc1
0.2	-0.29	CCC(CC)NC(=O)Nc1ccc(C)cc1
1.8	-0.01	CCCCCc1ccc(-c2cn(CCc3c[nH]c4ccccc34)nn2)cc1
1.1	0.04	Cc1nc(Br)c(Br)c(C)c1Br
0.06	-1.6	CCOC(=O)c1cc(S(=O)(=O)NCc2ccc3c(c2)OCO3)cn1C
0.51	-0.62	COc1cc(C2NC(=S)NC(C)=C2C(=O)Nc2ccc(C)cc2)ccc1O (configuration not stated)
0.12	1.9	O=C(Cc1ccc(F)cc1)NCCc1cnc[nH]1
0.02	0.6	O=C(c1cccc(NS(=O)(=O)c2ccc(Br)cc2)c1)N1CCCCC1
0.3	-0.5	Cc1ccc(CS/C(Nc2ccccc2C)=C(\C#N)C(N)=O)c(C)c1
0.06	-0.98	CCC(C)(C)NC(=O)CN(Cc1ccc2c(c1)OCO2)C(=O)CCC(=O)Nc1nccs1
1	0.04	O=C1NC2(CCCCCC2)C(=O)N1Cc1ccc([N+](=O)[O-])cc1
2	0.81	CCc1ccc(OCC2NCCc3cc(OC)c(OC)cc32)cc1 (configuration not stated)

(further entries)
KCNQ2 enhance	KCNQ2 enhance baseline	canonical_smiles
0.4	0.3	CCCNC(=O)CC(NS(=O)(=O)c1ccc(Cl)cc1)c1ccco1 (configuration not stated)
0.2	1.3	O=C(NCC1CCCO1)c1cc(NS(=O)(=O)c2cccs2)cc(NS(=O)(=O)c2cccs2)c1 (configuration not stated)
1.6	-2	NC(=O)NC(c1ccc(Cl)cc1)c1ccccc1Cl (configuration not stated)
0.48	-0.28	O=C(NCc1ccccc1)NC(=O)c1ccncc1
2.2	-0.78	CCOC(=O)c1c(NC(=O)c2ccc(-n3cnnn3)cc2)sc2c1CCCC2
0.53	1.9	CCCCC(=O)Nc1ccc(NC(=S)NC(=O)c2cccs2)cc1OC
1.7	-0.05	CC1(C)Cc2c(sc(NC(=O)C(=O)NCCCN3CCOCC3)c2C#N)CO1
0.56	0.39	CC(C)c1cccc(C(C)C)c1OCCCCCN1CCOCC1
0.58	-0.8	CCOc1ccccc1NC(=O)N1CCCN(c2ncccc2C#N)CC1
2.4	-0.04	Cc1ccccc1N(C(=O)c1snc(C(N)=O)c1N)C(C(=O)NC1CCCCC1)c1ccc(O)cc1 (configuration not stated)
1.7	-0.01	CCOc1ccc(NC(=O)c2ccc(F)c(S(=O)(=O)N3CCN(c4ccccn4)CC3)c2)cc1
0.8	0.38	CCCCc1ccc(S(=O)(=O)NCCc2ccncc2)cc1
1.2	2.3	CCCS(=O)(=O)N1CCC(C(=O)c2cccc(C(F)(F)F)c2)CC1
0.28	-0.77	COc1ccc(C(=O)CC2SC(N)=NC2=O)cc1 (configuration not stated)
0.48	-0.45	O=C(CSc1nc2c(c(=O)n1-c1ccc(F)cc1)SCC2)Nc1ccc2c(c1)OCO2
0.22	-0.24	Cc1ccc(-c2csc(NC(=O)c3cccc(S(=O)(=O)N4CCN(C)CC4)c3)n2)cc1
0.44	-0.66	CCOC(=O)CSc1nc2c(cnn2-c2ccc(F)cc2)c(=O)[nH]1
2.3	-0.69	CCCCN(CC)S(=O)(=O)N1CCC(C(=O)NCc2ccc(F)cc2)CC1
1.2	-0.56	Cc1ccc(CS(=O)Cc2ccc(C(=O)NC3CCCCC3)o2)cc1 (configuration not stated)
2.6	0.7	COc1ccc(-n2cnnc2SCC(=O)c2cc(C)n(Cc3cccs3)c2C)cc1
0.55	-1.3	O=C(NCc1ccco1)c1cc(-c2ccc(Cl)cc2)on1
0.09	-2.1	O=C(Cc1ccc(Cl)cc1)OCc1nnc(-c2ccccc2)o1
0.4	-0.18	CC1C/C(=N\NC(N)=S)c2cc(Cl)ccc2S1 (configuration not stated)
1.3	-0.46	COCCNC(=O)c1ccccc1N(Cc1ccccc1)S(=O)(=O)c1ccccc1
0.14	-0.38	COc1ccc([N+](=O)[O-])cc1NS(=O)(=O)Cc1ccccc1

Four entries drawn at random from the list so far, as already listed:
KCNQ2 enhance	KCNQ2 enhance baseline	canonical_smiles
1.9	-1.3	COc1cc(C(=S)N2CCCCC2)ccc1OCC(=O)Nc1ccccc1Cl
1.3	-0.46	COCCNC(=O)c1ccccc1N(Cc1ccccc1)S(=O)(=O)c1ccccc1
0.32	0.52	O=S(=O)(O)c1cc(OS(=O)(=O)c2ccccc2)cc2ccccc12
2	0.81	CCc1ccc(OCC2NCCc3cc(OC)c(OC)cc32)cc1 (configuration not stated)

Other structures.
KCNQ2 enhance	KCNQ2 enhance baseline	canonical_smiles
1.7	0.22	O=C(CC12CC3CC(CC(C3)C1)C2)Nc1ccc2c(c1)COC2=O
0.04	0.71	O=S1(=O)NC2c3ccccc3CC2O1 (configuration not stated)
0.67	2.3	CCOC(=O)CCC(=O)N1CCOCCOCCN(C(=O)CCC(=O)OCC)CCOCC1
0.54	-1.4	Cc1cccnc1NC(=O)CSc1nnc(CNC(=O)c2cccc([N+](=O)[O-])c2)n1C
1.7	-3.2	CSc1nc2nc(-c3ccc(F)cc3)c(CCN3CCN(C)CC3)cn2n1
0.46	0.24	O=C1Nc2ccccc2C12NCCc1c2[nH]c2ccccc12 (configuration not stated)
2.3	-2.3	COc1ccc(CCN2CCCC(CN(C)C(=O)c3ccoc3)C2)cc1 (configuration not stated)
0.15	-1.2	COc1cccc(N(C(=O)CNC(=O)c2ccco2)C(C(=O)NC2CCCC2)c2ccco2)c1 (configuration not stated)
2.7	-1.7	CCOC(=O)c1nc(NNC(=O)c2ccc([N+](=O)[O-])cc2)sc1C
0.21	-1.1	Cc1ccc(CN2C(=O)CCC2C(=O)NCc2ccc(F)cc2)cc1 (configuration not stated)
1.3	-0.57	C=CCOC(=O)c1ccc(N2CCN(c3ccccc3)CC2)nc1
1.1	-1.4	COc1ccc(N2CCN(C(=O)CCc3nc(-c4ccc(C)cc4)no3)CC2)cc1
1.4	-1.3	COC(=O)c1cc(NC(=O)c2cc(-c3ccc(C(F)(F)F)cc3)oc2C(F)(F)F)ccc1N1CCOCC1
